# D2 PAM – Beta-Arrestin HTS for Positive Allosteric Modulators of the Human D2 Dopamine Receptor: Potentiators; D(2) dopamine receptor (Homo sapiens), P14416; DiscoveRx D2 beta-arrestin cells, luminescence, 90 min; 100% = 57 uM dopamine signal; potentiation, % (test concentration not listed); hit rate 0.23% among 360,000; AID 624464, 2012; active = potentiation of 50% or more; inconclusive = 30% to 50%; inactive = 30% or less;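 further: compound concentration not given in the record; tested on top of an EC20 dose of dopamine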
#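 D2 cells co-treated with compound plus 50 nM dopamine (EC20) for 90 min at 37 deg C to detect potentiation. Beta-arrestin recruitment was read as enzyme-fragment luminescence after 1 h at ambient temperature. Full response was set by 57 uM dopamine.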
# gsp ag – qHTS for Agonist of gsp, the Etiologic Mutation Responsible for Fibrous Dysplasia/McCune-Albright Syndrome: qHTS | hit rate 0.13% among 340,000 | Potency, µM (titrated, usually from 76.9 µM), for inactives: at the top dose activation (cAMP increase), hits mostly activators | gsp mutant cells, cAMP HTRF, 30 min; control for the full effect not named in the record | AID 624287, 2012; active = well fitted activation curve with a large enough effect; inconclusive = small, poorly fitted or top-dose-only effect, or another doubt; inactive = no such curve, though single readings can be large or run the other way; cell line not stated here;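 further: phosphodiesterase inhibitor Ro 20-1724 added with compounds to block cAMP breakdown; potency means the concentration at half of the fitted maximal effect; nearly all actives have a fitted effect of over 60% in size; about a fifth of the inactives were tested at one dose only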
#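 Cells stably selected in G418 were plated at 2000/well, grown 16-24 hr, then given compounds in DMSO with the PDE inhibitor […] (300 uM solution added) for 30 min at 37C; cAMP was read by HTRF.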
# gsp antagonist – qHTS for Antagonists of gsp, the Etiologic Mutation Responsible for Fibrous Dysplasia/McCune-Albright Syndrome: qHTS | gsp-mutant cells, cAMP HTRF, 30 min; control for the full effect not named in the record | Potency, µM (titrated, usually from 76.9 µM), for inactives: at the top dose activity change, negative = inhibition, actives largely listed as inhibitors | hit rate 0.4% among 340,000 | AID 624288, 2012; active = falling curve of any shape with a large fitted effect; inconclusive = falling curve, mostly with a smaller effect; inactive = flat or rising curve; cell line not stated here;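 further: intracellular cAMP measured with PDE inhibitor Ro 20-1724 present during compound exposure; potency means the concentration at half of the fitted maximal effect; on the % scale 0 is the no-effect control and ±100 the full control effect; nearly all actives have a fitted effect of over 65% in size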
#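 Cells, 2000/well, grown 16–24 h in DMEM 10% FBS with 0.5 mg/ml G418, then compounds plus […] (300 uM addition stock), 30 min at 37C. cAMP read by HTRF (cAMP-d2 and anti-cAMP antibody-K in lysis buffer) after 30 min RT.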
# Six1-Eya2 inh – qHTS Assay for Inhibitors of the Six1/Eya2 Interaction. activity change, % (test concentration not listed). hit rate 0.56% among 360,000. AID 651725, 2012. AlphaScreen GST-Six1/His-Eya2 binding, biochemical; stronger effect = lower value; control for the full effect not named in the record; in the data active = activity change below about -65%; inconclusive = about -30% to -65%; inactive = above about -30%; further: on the % scale 0 is the no-effect control and ±100 the full control effect; compound concentration not given in the record
# Target sequence (O00167 whole entry, looked up): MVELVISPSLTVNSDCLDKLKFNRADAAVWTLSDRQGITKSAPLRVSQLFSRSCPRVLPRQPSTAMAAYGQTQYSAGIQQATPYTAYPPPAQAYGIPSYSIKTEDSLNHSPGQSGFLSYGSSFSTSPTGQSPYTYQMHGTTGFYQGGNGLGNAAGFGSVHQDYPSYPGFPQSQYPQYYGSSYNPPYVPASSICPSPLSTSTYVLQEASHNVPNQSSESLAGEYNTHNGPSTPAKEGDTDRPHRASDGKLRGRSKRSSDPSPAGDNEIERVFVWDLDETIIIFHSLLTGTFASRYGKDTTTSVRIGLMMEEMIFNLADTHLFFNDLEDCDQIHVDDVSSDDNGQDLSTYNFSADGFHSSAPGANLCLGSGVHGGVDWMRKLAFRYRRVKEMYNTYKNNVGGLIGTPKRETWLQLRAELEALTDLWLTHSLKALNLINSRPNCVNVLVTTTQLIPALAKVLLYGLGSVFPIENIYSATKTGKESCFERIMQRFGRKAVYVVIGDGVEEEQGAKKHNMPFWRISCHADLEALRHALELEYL
# Target sequence (Q15475 whole entry, looked up): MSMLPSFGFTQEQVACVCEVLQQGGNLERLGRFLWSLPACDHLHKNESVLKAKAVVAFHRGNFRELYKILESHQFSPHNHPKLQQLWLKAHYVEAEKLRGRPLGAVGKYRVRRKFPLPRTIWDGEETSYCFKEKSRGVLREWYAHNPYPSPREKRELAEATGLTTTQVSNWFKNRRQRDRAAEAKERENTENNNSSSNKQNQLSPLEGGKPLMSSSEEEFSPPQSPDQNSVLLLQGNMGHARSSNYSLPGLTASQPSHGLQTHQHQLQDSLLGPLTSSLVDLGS
#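 GST-Six1 + His-Eya2 (5X stock: 250/500 nM); Tris pH 8.0, 300 mM NaCl, 0.05% BSA, 0.02% Tween 20; GSH donor/Ni acceptor beads; 1 h 37 °C dark; AlphaScreen readout.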
# D2 ag – Beta-Arrestin HTS for Positive Allosteric Modulators of the Human D2 Dopamine Receptor: Agonists; D(2) dopamine receptor (Homo sapiens), P14416; DiscoveRx PathHunter D2 beta-arrestin, luminescence, 90 min; 100% = 57 uM dopamine signal; activation, % (no concentration beside the values); hit rate 0.084% among 360,000; AID 624465, 2012; in the data active = activation above about 40%; inconclusive = about 15% to 40%; inactive = below about 15%; further: compound concentration not given in the record; the text of the record calls up to 30% inactive
#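 Agonist mode: compounds alone added to overnight-plated D2 PathHunter cells for 90 min at 37 C, with 57 uM final dopamine (EC100) defining full response. Beta-arrestin recruitment detected by chemiluminescent reagent, read after 1 h at ambient temperature.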
# CtBP-E1A inh – qHTS Assay for Inhibitors of the CtBP/E1A Interaction | CtBP / adenovirus E1A interaction (AlphaScreen) | AlphaScreen GST-E1A/His-CtBP binding, 1536-well; stronger effect = lower value; control for the full effect not named in the record | activity change, % (concentration not given with the values) | hit rate 0.49% among 340,000; in the data active means activity change below about -65%; inconclusive means about -30% to -65%; inactive means above about -30%; further: on the % scale 0 is the no-effect control and ±100 the full control effect
#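 Steps: dispense buffer (Tris pH 8.0, NaCl 300 mM, TCEP 1 mM, BSA, Tween 20); add 5X protein mix (GST-E1A, His-CtBP, 125 nM each); pin 23 nL compound; 2 h at 37 °C, dark; add 5X beads (50 ug/mL); 1 h; read.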
# Numbers without * were called inactive; ? = inconclusive; . = not tested or not shown; [ ] = dose if it differs, or a comment.
D2 PAM	gsp ag	gsp antagonist	Six1-Eya2 inh	compound	D2 ag	CtBP-E1A inh
1	.	.	7	Cn1c(NCc2ccccc2)nc2cc(-c3cccc(C(F)(F)F)c3)sc2c1=O	-2.6	2
-8	-16%	-18%	1	CC(C)(C)c1ccc(OCCOCCn2cnc3ccccc3c2=O)cc1	2.0	.
3	-27%	.	5	CC1CCN(C(=O)c2ncn3c2c(=O)[nH]c2cccnc23)CC1	-11	4
-2	-13%	-2%	0	Cc1c(C)n(Cc2ccccc2)c2ncnc(NN)c12	4.6	-2
-15	4%[15.4 µM]	-15%	0	CC(C)CN(C(=O)COC(=O)c1nc(Cl)ccc1Cl)C1CCS(=O)(=O)C1 (centres undefined)	-3.4	0
0	28%	-14%	1	CCN(CC)S(=O)(=O)c1ccc(Cl)c(NC(=O)COC(=O)c2nc3nc(C)cc(C)n3n2)c1	-0.3	2
-16	-2%	-4%	1	CCOC(=O)CSc1nnc(-c2ccccc2OC)o1	-2.5	-3
9	14%	-17%	-4	Cc1ccc(Cn2ncc(Cl)c(Cl)c2=O)cc1	-4.8	12
-2	-33%[inhibitor]	-3%	6	CCn1c(SCC(=O)NCC2CCCO2)nc2c(c1=O)SC(C)C2 (centres undefined)	-2.9	-1
-11	-7%[15.4 µM]	5%	-10	CN(C)c1ccc(N=Cc2nc(-c3ccccc3)oc2OC(=O)c2cccc(Cl)c2)cc1	0.3	-6
-1	-15%	3%	-2	O=C(Nc1ccccc1-c1ccccc1)c1ccccc1Br	-2.6	12
-13	3%	8%	3	C=CCc1cccc(/C=N/n2cnnc2)c1O	-2.4	-13
5	-42%[15.4 µM]	26%	6	O=C(Nc1n[nH]c(C(F)(F)F)n1)C1CC1	-0.7	13
.	3%	.	-3	C[C@H](CO)N1C[C@H](C)[C@@H](CN(C)C(=O)NC2CCCCC2)Oc2ncc(Br)cc2C1=O	1.4	-4
3	13%	2%	2	Cc1ccc(-c2ccc(/C=N/c3ncn[nH]3)o2)cc1Cl	-0.4	-1
-22	.	0%	5	C#CCOCCOCCOCCNc1nc(N2CCN(C(=O)[C@H]([C@@H](C)CC)n3cc(CCCCN)nn3)CC2)nc(N2CCN(C(=O)[C@H](CCCCN)n3cc(CCC(=O)O)nn3)CC2)n1	-1.7	1
1	-1%	-13%	13	CCOc1ccccc1OC(=O)CN1C(=O)c2ccccc2C1=O	-2.5	-6
-10	24%	7%	4	O=C(CCNS(=O)(=O)c1ccc2[nH]c(=O)oc2c1)Nc1ccccc1	1.1	0
-14	-34%[inhibitor]	4%	5	Cc1ccc(C(C)C)cc1S(=O)(=O)NCc1cccnc1	-0.9	1
20	-40%[inhibitor]	3%	7	CC(OC(=O)/C=C/c1ccccc1Cl)C(=O)NC1CCCCC1C (centres undefined)	3.3	-1
-10	3%	-4%	0	CCCc1c2c(cc3c(=O)cc(C(=O)OCC)oc13)CCCC2	1.5	.
3	-12%	4%	3	CCOc1ccccc1N(CC(=O)NC(C)(C)C)C(=O)c1ccc(CN2CCOCC2)o1	-0.2	1
-6	6%[15.4 µM]	-19%	1	CCC1(CC)Cc2ccccc2-c2nc(NN)[nH]c(=O)c21	-1.7	0
-3	?	-6%	3	CC(C)c1ccc(NC(=O)CSc2n[nH]c(=O)n2-c2cccnc2)cc1	1.7	-1
-10	12%	-6%	7	O=C1c2ccccc2NC(c2cccnc2)N1c1ccccc1F (centres undefined)	-8.6	19

# 2 records drawn at random from the list so far:
D2 PAM	gsp ag	gsp antagonist	Six1-Eya2 inh	compound	D2 ag	CtBP-E1A inh
-8	-16%	-18%	1	CC(C)(C)c1ccc(OCCOCCn2cnc3ccccc3c2=O)cc1	2.0	.
-13	3%	8%	3	C=CCc1cccc(/C=N/n2cnnc2)c1O	-2.4	-13

# The list continues.
D2 PAM	gsp ag	gsp antagonist	Six1-Eya2 inh	compound	D2 ag	CtBP-E1A inh
-13	10%	?	22	COc1cccc(NC(=S)N(Cc2ccc(Cl)cc2)Cc2ccc(C(=O)O)cc2)c1	-4.1	-20
-18	-45%[inhibitor]	7%	1	Cc1ccc2c(c1)cc1c(=O)n(CC(=O)NCc3ccccn3)nc(C)n12	-2.2	7
-10	10%	-9%	14	CCc1nc(N2CCCC(C)C2)c2oc3ccccc3c2n1 (centres undefined)	-1.2	21
-8	6%	6%	-3	CCC(=O)N1CCc2cc(S(=O)(=O)NC(Cc3ccccc3)C(=O)NC3CCCC3)ccc21 (centres undefined)	-2.6	-1
0	-57%[inhibitor]	-3%	-13	O=C(c1ccccc1)c1nn(-c2ccccc2)c2nnc(Cc3ccccc3)c(=O)n12	-0.9	-22
-16	1%	-5%	-15	Brc1cccc(CNc2nc3ccccc3n2CCN2CCCCC2)c1	-3.7	-12
-7	5%[15.4 µM]	-5%	1	O=C(Nc1c(F)cccc1F)C(c1ccccc1)c1ccccc1	2.3	-9
-7	?	10%	1	Cc1cc(=O)n2nc(N3CCCC3C(=O)Nc3cccc(Cl)c3C)sc2n1 (centres undefined)	-3.2	-10
3	-1%	-8%	-6	CN(CC(=O)Nc1c(Cl)cccc1Cl)C(=O)CNC(=O)c1ccc2ccccc2c1	-5.9	-7
-8	15%	-1%	1	CCC1CCCCN1C(=O)COC(=O)c1n[nH]c2ccccc12 (centres undefined)	0.4	-2
-2	10%[15.4 µM]	-10%	1	COc1ccc(C2CC(=O)N(c3ccccc3)C3=C2C(=O)CCC3)cc1 (centres undefined)	-1.4	11
-15	16%	7%	-4	Cc1ccccc1C(=O)NC1CCN(CC(=O)Nc2ccc(Br)cc2)CC1	-1.7	3
-15	-16%[15.4 µM]	6%	-3	Cc1ccc(-n2cccn2)c(CN2CCC(CO)(CCc3ccccc3)CC2)c1	-0.9	-2
-30	?	12%	-4	COc1ccccc1CN1CCC(CNS(=O)(=O)c2cc(-c3onc(C)c3C)ccc2OC)CC1	-2.9	1
-17	3%[15.4 µM]	11%	4	CCn1c(=N)n(CC(O)COc2ccc(C)cc2)c2ccccc21 (centres undefined)	-3.6	0
-8	4%[15.4 µM]	-22%	8	CCCCn1c(=O)c(CCC(=O)OCC(=O)NC(C)c2ccccc2)nc2ccccc21 (centres undefined)	-3.2	4
-13	-35%[inhibitor]	-16%	-2	Cc1cccc(-c2nn(-c3ccccc3)cc2C(=O)N(C)CC(=O)Nc2ccc(N3CCOCC3)cc2)c1	-4.2	2
-9	16%	?	9	CCN(CCO)c1nc(SC)nc2c1sc1nc(-c3ccco3)c3c(c12)CCC3	-3.7	11
-13	-33%[inhibitor]	-10%	6	CC(C)c1nccn1S(=O)(=O)c1cc(Cl)ccc1Cl	-0.7	4
-2	-5%	-6%	2	COCCNC(=O)C(c1ccccc1)N(Cc1cccs1)C(=O)Cn1nnc2ccccc21 (centres undefined)	-2.4	3
-10	21%[15.4 µM]	-4%	10	Cc1cc(-c2nnc(-c3cccc(Cl)c3)o2)no1	-1.8	10
-13	30%	0%	-25	COC(=O)c1[nH]c2cccc(OC)c2c1NC(=O)CCN1CCN(c2ccccc2OC)CC1	3.9	?
14	1%[15.4 µM]	7%	1	Cn1c(NC2CCCCC2)cc(=O)n(C)c1=O	-1.2	9
2	.	-4%	-18	COCCCOc1cc(NCc2ccccc2)c2ncn(C(C)C)c2c1	5.0	-25
-14	-28%	5%	-7	Fc1ccccc1Cc1nnc2n1N=C(c1ccc(Cl)cc1)CS2	-1.8	-2

# Arranged by molecular weight (falling): some entries from above
D2 PAM	gsp ag	gsp antagonist	Six1-Eya2 inh	compound	D2 ag	CtBP-E1A inh
-15	16%	7%	-4	Cc1ccccc1C(=O)NC1CCN(CC(=O)Nc2ccc(Br)cc2)CC1	-1.7	3
-16	1%	-5%	-15	Brc1cccc(CNc2nc3ccccc3n2CCN2CCCCC2)c1	-3.7	-12
-8	15%	-1%	1	CCC1CCCCN1C(=O)COC(=O)c1n[nH]c2ccccc12 (centres undefined)	0.4	-2
-10	21%[15.4 µM]	-4%	10	Cc1cc(-c2nnc(-c3cccc(Cl)c3)o2)no1	-1.8	10

# More entries:
D2 PAM	gsp ag	gsp antagonist	Six1-Eya2 inh	compound	D2 ag	CtBP-E1A inh
-13	-9%	4%	0	Nc1oc2ccccc2c(=O)c1C=O	-3.4	-4
-5	?	-1%	3	Cc1ccc(Cl)c(OCC(=O)Nc2ccc3c(c2)OCCO3)c1	-0.5	14
-2	?	-3%	1	O=C(Cc1cccs1)Nc1cccc(-c2nc3ccccc3[nH]2)c1	-4.1	4
-1	5%	0%	2	Cc1cc(C)nc(SCC(=O)Nc2ncc3c(n2)CC(C)(C)CC3=O)n1	-1.8	5
-1	-13%	1%	1	Cc1c(Cl)cccc1NC(=O)COC(=O)C12CC3CC(CC(O)(C3)C1)C2	-1.6	2
0	-37%[inhibitor]	?	5	Cc1sc(NC(=O)/C=C/c2ccc3c(c2)OCO3)nc1-c1ccccc1	0.5	19
-3	?	2%	3	CC(C)(C)OC(=O)NCCCCCNC(=O)c1[nH]cnc1C(=O)Nc1cccc(Cl)c1	-1.0	.
0	-38%[15.4 µM]	14%	15	Cc1ccc(CC(=O)Nc2nccs2)cc1C	0.1	34
4	-7%	-1%	2	COc1cccc(CNC(=O)CCS(=O)(=O)c2cccc3nonc23)c1	-1.8	-15
2	3%	10%	2	CCn1c(=S)[nH]c2cc(C(=O)OC)ccc2c1=O	1.4	0
-11	17%	7%	8	CCOC(=O)C1=C(N)Oc2c(oc(CO)cc2=O)C1c1ccc(F)cc1 (centres undefined)	-3.3	0

# Source: PubChem
